TAR Tat displ = HIV-1 TAR-Tat binding disruption; HIV-1 TAR RNA, Tat peptide displacement FRET; hits give high values; z-score (test concentration not listed); 0.6% of 100,000 active; AID 1259389;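 also: score is relative to mean and SD of negative controls; some compounds called inactive have numbers as strong as hits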
CDC25B-CDK2 inh = human CDC25B-CDK2/CyclinA binding inhibition; HTRF CDC25B-CDK2/CyclinA binding, anti-His/anti-Flag; hits give high values; AID 1259370; z-score (concentration not given with the values); 0.72% of 94,000 active; P30305+P24941;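 also: score is relative to mean and SD of negative controls; strong numbers were not always called active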
* = called active by the depositor; / = not tested or not shown.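 The calls were made as follows: active = z-score from 3 up in half or more of its runs; inactive = the rest.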

SMILES	TAR Tat displ	CDC25B-CDK2 inh
O=C(Nc1ccccc1Cl)N1Cc2ccccc2-n2cccc2C1c1cccs1 (stereo not given)	-0.26	/
CN1CCc2nc3sc(C(N)=O)c(N)c3cc2C1	0.75	-0.95
Cc1[nH]nc2c1C(c1cccc(F)c1)SCC(=O)N2 (stereo not given)	1.5	-1.3
O=c1c2ccccc2[nH]c(=S)n1-c1ccc(F)cc1	/	-7.4
COC(C)C(O)(C(=O)OCC1=CCN2CC[C@H](O)C12)C(C)C (stereo not given in full)	-0.3	/
O=C1CSC(c2ccc(Br)cc2)c2c(n(C3CCCC3)[nH]c2=O)N1 (stereo not given)	0.17	-0.34
O=C1C2CCCC1C(N1CCCC1)CC2 (stereo not given)	/	-0.45
CC1=C(C(=O)O)N2C(=O)C(NC(=O)CCCC(=O)O)C2SC1 (stereo not given)	-0.58	-1.9
N=C(N[N+](=O)[O-])N1CCSCC1	/	0.53
COc1ccc2[nH]c3c(c2c1)CCNC3C (stereo not given)	2	-1.1
CC12CN3CC(C)(CN(C1)C3c1cccnc1)C2=O (stereo not given)	-0.81	0.35
COC(=O)CSC1=NN1c1cc(C)nc(N)n1	-2.6	0.92
NCCc1c[nH]c2ccc(Cl)cc12	0.91	-0.91
CCCCC1(C)NCCN2C(=O)CSC21 (stereo not given)	/	0
CC(C)NP(=O)(NC(C)C)OP(=O)(NC(C)C)NC(C)C	/	-0.34
Cc1cc(C)nc(-n2nc(-c3ccccc3)c3c2NC(=O)CSC3c2cccc(F)c2F)n1 (stereo not given)	1.5	-1.6
COC(=O)C1CC2CCCN2C12C(=O)N(C)c1ccccc12 (stereo not given)	0.39	1.3
CC(=O)c1cc(C(C)(C)C)cc2c1CCC2(C)C	/	-1.6
CCOc1cc(C2SCC(=O)Nc3c2c(C)nn3-c2nc3ccccc3s2)ccc1O (stereo not given)	0.69	-1.1
COc1ccccc1NC(=O)N1Cc2ccccc2-n2cccc2C1c1cccs1 (stereo not given)	0.04	/
Cc1c(C(c2ccccc2)c2c(O)c3ccccc3oc2=O)c(=O)n(-c2ccccc2)n1C (stereo not given)	/	-0.3
CC(C)OC(=O)c1sc2nc3c(cc2c1N)CN(C)CC3	-0.14	-2.3
CCc1ccc(CN2CCN(Cc3cc(Br)ccc3O)CC2)cc1	1.3	-0.94
CN(C)c1ccc(/C=C/c2nc3ccccc3c(=O)n2-c2ccccc2)cc1	-4.2	-2
O=C1CN=C(c2ccc(F)cc2)c2oc3ccccc3c2N1	1.7	-2.8
Next part:
SMILES	TAR Tat displ	CDC25B-CDK2 inh
Fc1ccc(CN2CCN(Cc3ccc4c(c3)OCO4)CC2)cc1	/	1.7
CCC1(C)N2CC3(C)CN1CC(C)(C2)C3=O (stereo not given)	/	-0.89
O=C(Nc1nccs1)c1cccn(Cc2ccc(Br)cc2)c1=O	0.42	/
CC(C)C1c2cccn2-c2ccccc2CN1C(=O)Nc1ccccc1F (stereo not given)	-0.47	/
Cn1nc(-c2ccccc2F)c2cc(C(=O)N3CCC4(CC3)OCCO4)sc21	/	-1.7
Fc1cccc(Cl)c1CN1CCN(Cc2c(F)cccc2Cl)CC1	/	-1.6
CCOC(=O)c1sc2nc3c(cc2c1N)CN(C(C)C)CC3	-1.3	1.4
CN1CCC(N(C)c2ncnc3ccc(Br)cc23)CC1	/	-1.6
CC(C)(C)c1cc(C(C)(C)C)c2c(c1)C(O)(C(F)(F)F)C(=O)O2 (stereo not given)	/	0.23
CN(C)C(CSS(=O)(=O)c1ccccc1)CSS(=O)(=O)c1ccccc1	/	1.6
Nc1ccccc1C(=O)c1ccccc1	1.6	-1.3
CCC(C)n1[nH]c(=O)c2c1NC(=O)CSC2c1ccccc1 (stereo not given)	0.59	-0.28
CCCC(C)(COC(N)=O)COC(=O)NC(C)C (stereo not given)	0.78	/
COc1cc2c(cc1OC)[C@@H]1C(=O)c3ccc(OC)c(CC=C(C)C)c3O[C@@H]1CO2	-1.1	/
CCC1c2cccn2-c2ccccc2CN1C(=O)Nc1cccc(Br)c1 (stereo not given)	0.12	/
O[C@@H]1CCCC[C@H]1N1CCC(c2ccccc2)CC1	1.2	/
C[C@]12CCC(=O)C[C@@H]1CC[C@@H]1[C@@H]2CC[C@@]2(C)[C@H]1CC[C@]2(C)O	-0.51	/
CN[C@@H]1C[C@H]2O[C@@](C)([C@@H]1OC)n1c3ccccc3c3c4c(c5c6ccccc6n2c5c31)C(=O)NC4	2.7	/
CCCN1CCc2cc(O)cc3c2[C@H]1Cc1ccc(O)c(O)c1-3	/	-3.4
CCc1nn2c(=O)cc(N3CCNCC3)nc2s1	/	1.4
CCCOc1ccc(C2SCC(=O)Nc3n[nH]c(C)c32)cc1OC (stereo not given)	1.8	-1.2
O=C1CN=C(c2ccc(Cl)cc2)c2oc3ccccc3c2N1	-0.06	-0.33
COc1ccc(OC)c(NC2=NCCS2)c1	/	-0.87
CCc1ccc(-n2c(=O)c(C#N)cc3c(=O)n4ccccc4nc32)cc1	-1.4	-1.3
CCN1C[C@]2(COC)CC[C@H](OC)[C@]34C5C[C@@H]6[C@@H](OC)C[C@@]7(OCOC7(C13)[C@@H](O)C24)C5[C@H]6OC (stereo not given in full)	2	/

3 compounds drawn at random from those above, as already listed:
SMILES	TAR Tat displ	CDC25B-CDK2 inh
COc1cc2c(cc1OC)[C@@H]1C(=O)c3ccc(OC)c(CC=C(C)C)c3O[C@@H]1CO2	-1.1	/
CCCC(C)(COC(N)=O)COC(=O)NC(C)C (stereo not given)	0.78	/
Fc1cccc(Cl)c1CN1CCN(Cc2c(F)cccc2Cl)CC1	/	-1.6

In the list so far, 2 contain a furan ring, fused or not:
SMILES	TAR Tat displ	CDC25B-CDK2 inh
O=C1CN=C(c2ccc(F)cc2)c2oc3ccccc3c2N1	1.7	-2.8
O=C1CN=C(c2ccc(Cl)cc2)c2oc3ccccc3c2N1	-0.06	-0.33

More compounds follow:
SMILES	TAR Tat displ	CDC25B-CDK2 inh
CCOc1ccc(CNCCc2ccc3c(c2)OCO3)cc1	0.45	-1.1
Cc1nn(-c2nc3ccccc3s2)c2c1C(c1ccc(N(C)C)cc1)SCC(=O)N2 (stereo not given)	-0.27	-2.6
C=CCC1(NCCc2ccccc2)CCCCC1	/	-1.1
O=S1(=O)N(Cc2ccc(Cl)cc2)CCCN1Cc1cccc(F)c1	-0.97	/
COP(=O)(OC)OC=C(Cl)Cl	-0.17	/
CCC1c2cccn2-c2ccccc2CN1C(=O)Nc1cc(F)ccc1F (stereo not given)	-0.39	/
O=C(c1ccc(Cl)cc1)C12CN3CN(CN(C3)C1)C2	0.34	2.6
C=C(C)[C@@H]1CCC(C)=C[C@H]1C1=C(O)C(=O)C(CCCCC)=CC1=O	1.6	/
CCCCOc1ccc(C2SCC(=O)Nc3c2c(C)nn3-c2nc(C)cc(C)n2)cc1 (stereo not given)	0.73	-2
Cn1c2ccccc2c2c(C(=O)N3CCC4(CC3)OCCO4)cn(C3CCCCC3)c(=O)c21	/	-3.2
c1ccc2c(CN3CCC(N4CCCCC4)CC3)c[nH]c2c1	/	-0.6
CCOP(=O)(OCC)C(Cl)(Cl)C(OC(N)=O)P(=O)(c1ccccc1)c1ccccc1 (stereo not given)	/	-1
CN1CCc2nc3ccccc3c(C(=O)O)c2C1	/	-1.6
Cc1[nH]nc2c1C(c1ccc(C(=O)O)cc1)SCC(=O)N2 (stereo not given)	1.6	0.53
COc1ccccc1-n1c(/C=C/c2ccc([N+](=O)[O-])o2)nc2ccccc2c1=O	-4	-1.7
O=C(O)Cn1cc(C(=O)c2ccccc2F)c2ccccc21	1.1	-1.6
C=CC1CN2CCC1CC2C(OC(=O)c1ccco1)c1ccnc2ccccc12 (stereo not given)	1.6	2.8
Cc1ccc(-n2nc(C)c3c2NC(=O)CSC3c2ccc3c(c2)OCO3)cc1 (stereo not given)	0.76	-1.5
Cc1cc(C)cc(NC(=O)N2Cc3ccccc3-n3cccc3C2C)c1 (stereo not given)	0.69	/
COc1ccc(-n2nc(C)c3c2NC(=O)CSC3c2cc(F)cc(F)c2)cc1 (stereo not given)	-1	-1.2
Cc1ccc(C2SCC(=O)Nc3c2c(-c2ccccc2)nn3-c2nc(C)cc(C)n2)cc1 (stereo not given)	0.77	-0.69
CCC(=O)N1c2ccc(S(=O)(=O)CCC(=O)N3CCC4(CC3)OCCO4)cc2CC1C (stereo not given)	/	-2.4
C#CCN1C(=O)C2(C(C#N)=C(N)OC(C)=C2C(=O)OCCOC)c2ccccc21 (stereo not given)	/	0.36
CC(C)(C)OC(=O)NC1[C@H]2CNC[C@@H]12 (stereo not given in full)	/	-1
CC(N)C(=O)OC(C)(C)Cc1ccc(Cl)cc1 (stereo not given)	0.43	-1.8

A different layout for 3 compounds above:
Results follow in this order: TAR Tat displ, CDC25B-CDK2 inh
Cc1cc(C)cc(NC(=O)N2Cc3ccccc3-n3cccc3C2C)c1 (stereo not given)
 : 0.69, /
C=CCC1(NCCc2ccccc2)CCCCC1
 : /, -1.1
CCOc1ccc(CNCCc2ccc3c(c2)OCO3)cc1
 : 0.45, -1.1

Following part
SMILES	TAR Tat displ	CDC25B-CDK2 inh
Oc1ccc2c3c1OC1C(O)CC[C@@]4(O)[C@@H](C2)N(CC2CCC2)CC[C@]314 (stereo not given in full)	0.43	/
C[C@H]1C2Cc3ccc(O)cc3C1(C)CCN2CC1CC1 (stereo not given in full)	/	4.4
Fc1ccc(C2CC(c3cccnc3)Nc3nnnn32)cc1 (stereo not given)	/	-1.6
CN1CC=C(c2noc(CCC(=O)Nc3ccc(Cl)cc3)n2)CC1	1.5	-0.75
O=c1oc2ccccc2c(O)c1Cc1c(O)c2ccccc2oc1=O	1.5	-1.1
CN(C)C1(c2nnnn2CCOC(=O)Nc2ccc(Cl)cc2)CCCCC1	3	-0.79
CNC(=O)O/N=C(/C)SC	2.1	/
O=C(NC1CCCCC1)N1CCN2CCCC2C1 (stereo not given)	/	-1.8
Cc1c(N=Nc2no[n+]([O-])c2C)no[n+]1[O-]	/	-1.9
O=C(Nc1ccc(F)cc1)N1CC2C[C@H](C1)c1cccc(=O)n1C2	0.43	-0.59
O=C1NC(=O)C2(C(=O)N1)C(c1ccc(F)cc1)NC(=S)NC2c1ccc(F)cc1 (stereo not given)	/	0.11
C[C@]12CCC3C(CC[C@H]4C[C@@H](O)CC[C@]34C)C1CC[C@@H]2O (stereo not given in full)	3	/
CC(C)N(C(=O)CCl)c1ccccc1	0.55	/
CC(C)c1ccc2c(c1O)CC[C@H]1C3=C(CC[C@]21C)C(=O)OC3	0.01	/
C[C@H]1C(=O)O[C@@H]2CCN3CC=C(COC(=O)[C@](C)(O)[C@]1(C)O)[C@H]23	6	/
CCNc1nc(NC(C)C)nc(SC)n1	/	-1.6
COc1cc(NC(=O)N2Cc3ccccc3-n3cccc3C2c2cccs2)cc(OC)c1 (stereo not given)	0.57	/
COC(=O)COc1cc(Cl)c(Cl)cc1Cl	-0.63	/
CN1C2CCCC1CC(=O)C2	1.5	/
COC1=CC(=O)OC(/C=C/c2ccccc2)C1 (stereo not given)	1.1	/
CC(C)N1CCC2(CC1)NC(CO)(CO)CO2	/	-1.3
Cc1cccn2c(=O)c3cc(C#N)c(=O)n(CC(C)C)c3nc12	-0.19	-1.5
COC(C)(C)CCC[C@H](C)C/C=C/C(C)=C/C(=O)OC(C)C	1	/
CSc1ccc(C2C3C(=NN2C(C)=O)C2CCN3CC2)cc1 (stereo not given)	1.6	-3.2
COc1cccc(Oc2coc3cc(OC(=O)N(C)C)ccc3c2=O)c1	1.3	-1.6

A draw from above in order of SMILES length, lowest first:
SMILES	TAR Tat displ	CDC25B-CDK2 inh
COC(=O)COc1cc(Cl)c(Cl)cc1Cl	-0.63	/
CC(C)c1ccc2c(c1O)CC[C@H]1C3=C(CC[C@]21C)C(=O)OC3	0.01	/
C[C@H]1C(=O)O[C@@H]2CCN3CC=C(COC(=O)[C@](C)(O)[C@]1(C)O)[C@H]23	6	/

Remaining list, next part:
SMILES	TAR Tat displ	CDC25B-CDK2 inh
CN[C@@H]1[C@@H](O)C(OC2[C@@H](N)C[C@@H](N)[C@H](O[C@H]3O[C@H](C(C)O)[C@@H](O)[C@H](O)[C@H]3N)[C@H]2O)OC[C@]1(C)O (stereo not given in full)	1.4	/
O=C(CCC(=O)N1CC2CC(C1)c1cccc(=O)n1C2)NCc1cccs1 (stereo not given)	-0.17	0.36
CC[C@@]1(O)C[C@H](O)c2c(cc3c(c2O)C(=O)c2c(O)ccc(O)c2C3=O)[C@H]1C(=O)OC	3.4	/
O=C(O)c1ccc2c(c1)[C@@H]1C=CC[C@@H]1[C@H](c1cccnc1)N2	/	3
Cc1cccc(C)c1NC1=NCCCS1	0.59	-1.6
CC1c2cccn2-c2ccccc2CN1C(=O)Nc1cccc(Br)c1 (stereo not given)	0.79	/
C[C@H]1CCC/C=C/[C@@H]2C[C@H](O)C[C@H]2[C@H](O)/C=C/C(=O)O1	1.5	/
CCOc1ccccc1C1SCC(=O)Nc2c1c(=O)[nH]n2C1CCCC1 (stereo not given)	2	-1.3
CC(=O)[C@H]1CCC2C3CC[C@H]4C[C@H](O)CC[C@]4(C)C3CC[C@@]21C (stereo not given in full)	/	-0.02
O=C(NCCc1cnc[nH]1)C1=Cc2ccccc2OC1	-0.01	/
CC12CN3CC(C)(CN(C1)C31CCCC1)C2=O	/	0.27
O=C(CCC(=O)N1CC2CC(C1)c1cccc(=O)n1C2)NC1CCCCC1 (stereo not given)	1.6	0.97
CSc1cccc(NC(=O)N2Cc3ccccc3-n3cccc3C2c2cccs2)c1 (stereo not given)	0.26	/
C=C(C)C1CCC(C)C[C@H]1c1c(O)cc(CCCCC)cc1O (stereo not given in full)	1.7	/
COc1c2c(cc3c1OCO3)C13C=C[C@H](OC)CC1N(C2)CC3O (stereo not given in full)	9.6	/
Cc1c(C(=O)c2cccc3ccccc23)c2cccc3c2n1C(CN1CCOCC1)CO3 (stereo not given)	-5	/
CN1CCc2cc3c(cc2[C@H]1[C@@H]1OC(=O)c2c1ccc1c2OCO1)OCO3	-0.33	/
COc1ccc(C2N3CCCN23)cc1 (stereo not given)	-0.56	-1.7

Screening results (PubChem BioAssay)

Only part of the results is shown; the hit share may differ from the screen's.
